Sa RN4220 lethal = growth inhibition of S. aureus RN4220, primary screen, OD600; 16 h; inhibition, % (no concentration beside the values); hit rate 0.33% among 330,000;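 active = z-score of -3 or lower and OD600 up to 0.18 on both plates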;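 note: plate controls were untreated cells for no effect and reference antibiotic for full effect; stock transfer was 100 nL into about 80 µL; one replicate is shown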
Bead autofluor = counter-screen for toxin protease inhibitors: compound fluorescence. hit rate 3.1% among 360,000. fluorescence intensity (test concentration not listed). compound autofluorescence counterscreen, microsphere flow cytometry; stronger effect = higher value;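 active = at least 3 SD above the mean of all compounds, about 16000 in these data; inconclusive = too few beads counted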;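 note: 100 nL of 1 mM stock went into each well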
Mtb hypoxia rep = PubChem AID 1159583 | M. tuberculosis hypoxia-regulated fluorescent reporter, fluorescence | fluorescence inhibition, % (no concentration beside the values) | hit rate 0.1% among 300,000;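 active = 35 to 45% if threefold the growth effect, above 45% if 1.5-fold the growth effect; inactive = the rest, general growth blockers included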;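 note: wells of about 50 µL received 100 nL stock; 0% = vehicle wells and 100% = reference inhibitor wells; whole bacteria with a GFP reporter of the hypoxia response; strong numbers were not always called active; many hits fall short of the cut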
ugtP null kill = growth inhibition of ugtP-null S. aureus, primary screen, RN4220 ugtP deletion, OD600. 16 h; some inactives read as strong as hits. growth inhibition, % (test concentration not listed). hit rate 0.54% among 330,000. AID 1259309, 2017;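 active = z-score under -3 and OD600 up to 0.15 on both plates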;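 note: plate controls were untreated wells for no effect and antibiotic for full effect; wells of about 80 µL received 100 nL stock; the first replicate is given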
BJeLR viability = MLPCN primary cell-based screen for lethality selective to Ras in HRASV12 cells; inhibition, % (no concentration beside the values); BJeLR (HRASV12) viability, CellTiter-Glo ATP luminescence, 48 h; reference of the scale not given here; hit rate 0.17% among 300,000; AID 1554, 2009;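 active = replicate mean above 50%; inconclusive = above 50% but judged a plate artefact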;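 note: 50 nL library stock added to about 25 µL; numbers are from one replicate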
PrP 5UTR inh = inhibition of PrP 5' UTR reporter expression; cell-based PrP 5' UTR mRNA reporter, plate reader; inhibition, % (concentration not given with the values); hit rate 0.35% among 340,000; AID 488862, 2010;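 active = every replicate at 50% or more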;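 note: 0 = median of the neutral control wells; tested in H4 reporter cells; numbers are from one replicate; inactives centre near -14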
Mtb hypoxia rep growth = second read-out of Mtb hypoxia rep, no call of its own (marks repeat the call); growth inhibition, %; measured here: M. tuberculosis growth (absorbance);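 0% = vehicle and 100% = reference antibiotic; read after six days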
Numbers without * were called inactive.

Screening O=c1c2ccccc2n(CC(O)CN2CCOCC2)c2ccccc12 (stereo unspecified) returned Sa RN4220 lethal -1.9, Bead autofluor 3012, Mtb hypoxia rep 9.4, ugtP null kill 11.1, BJeLR viability -7.3, PrP 5UTR inh -16.6 and Mtb hypoxia rep growth 0.4.
Screening O=C(CCC(=O)N1CCc2ccccc2C1)N1CCN(S(=O)(=O)c2ccccc2)CC1 returned Sa RN4220 lethal -1.3, Bead autofluor 10843, Mtb hypoxia rep 2.3, ugtP null kill -6.5, BJeLR viability -3.1, PrP 5UTR inh -16.8 and Mtb hypoxia rep growth -0.3.
Screening CCCC1CC(C)(/C(C)=N\NC(N)=S)OC1=O (stereo unspecified) returned Bead autofluor 4349, BJeLR viability 5.0 and PrP 5UTR inh 0.0.
COc1ccc(-n2cnnc2SCC(=O)NC2CCS(=O)(=O)C2)cc1 (stereo unspecified) was read as Sa RN4220 lethal 2.1, Bead autofluor 2518, Mtb hypoxia rep 11.6, ugtP null kill 8.7, BJeLR viability 8.1, PrP 5UTR inh -7.3 and Mtb hypoxia rep growth 12.4.
Screening Cc1cc(N)n2nc(C)c(-c3ccccc3)c2n1 returned Sa RN4220 lethal 3.9, Bead autofluor 4195, Mtb hypoxia rep 11.1, ugtP null kill -2.9, BJeLR viability -0.9, PrP 5UTR inh -34.7 and Mtb hypoxia rep growth 13.9.
`Cc1ccc(S(=O)(=O)NCCCCCC(=O)Nc2ccccc2C)cc1` gave Sa RN4220 lethal 1.8, Bead autofluor 2508, Mtb hypoxia rep 7.0, ugtP null kill 4.6, BJeLR viability -12.0, PrP 5UTR inh -6.1 and Mtb hypoxia rep growth 5.4.
`CCN(Cc1ccncc1)C(=O)c1cc(COc2ccc(F)cc2F)on1` gave Sa RN4220 lethal 5.4, Bead autofluor 4169, Mtb hypoxia rep 8.6, ugtP null kill 5.2, BJeLR viability -2.3, PrP 5UTR inh -13.9 and Mtb hypoxia rep growth -0.4.
Cc1cc(C)c(S(=O)(=O)Cc2ccccc2)c(=O)[nH]1 was read as Sa RN4220 lethal 5.0, Bead autofluor 3421, Mtb hypoxia rep 9.1, ugtP null kill 10.9, BJeLR viability -3.1, PrP 5UTR inh -9.9 and Mtb hypoxia rep growth 3.9.
`COc1cccc(C2c3[nH]c4ccccc4c3C[C@H]3C(=O)N(c4ccccc4C(=O)NCCCN4CCOCC4)C(=O)N23)c1` (stereo partly specified) gave Sa RN4220 lethal -3.9, Bead autofluor 5215, ugtP null kill 3.1, BJeLR viability -2.1 and PrP 5UTR inh -3.6.
Cc1ccc(C)c(NC(=S)N/N=C2/CCCCc3ccccc32)c1 was read as Bead autofluor 2149, BJeLR viability -14.5 and PrP 5UTR inh -9.7.
Screening O=C(Nc1ccc2c(c1)OCO2)C1CCN(C(=O)c2ccc(Br)cc2)CC1 returned Sa RN4220 lethal 1.4, Bead autofluor 2216, Mtb hypoxia rep 13.1, ugtP null kill -2.8, BJeLR viability -2.6, PrP 5UTR inh -25.2 and Mtb hypoxia rep growth -0.5.
`COc1ccc(C(=O)COC(=O)c2ccn(C)n2)cc1` gave Sa RN4220 lethal 1.3, Bead autofluor 6006, Mtb hypoxia rep 14.8, ugtP null kill 6.9, BJeLR viability -3.2, PrP 5UTR inh -53.4 and Mtb hypoxia rep growth -1.8.
Screening CCC1(c2ccc(F)cc2)NC(=O)N(CC(=O)N(CCC#N)c2ccccc2)C1=O (stereo unspecified) returned Sa RN4220 lethal -1.1, Bead autofluor 5331, Mtb hypoxia rep 11.8, ugtP null kill 7.5, BJeLR viability -6.7, PrP 5UTR inh -14.3 and Mtb hypoxia rep growth 5.3.
For COc1ccc(N(CC(=O)NCc2ccccc2C)S(=O)(=O)c2ccccc2[N+](=O)[O-])c(OC)c1 the results were Sa RN4220 lethal 9.7, Bead autofluor 3738, Mtb hypoxia rep 7.3, ugtP null kill -3.6, BJeLR viability -8.1, PrP 5UTR inh -13.1 and Mtb hypoxia rep growth 2.0.
For COc1ccc(OC)c(C2CC(=O)NC(SC)=C2C#N)c1 (stereo unspecified) the results were Sa RN4220 lethal 1.8, Bead autofluor 5555, Mtb hypoxia rep 6.5, ugtP null kill 12.1, BJeLR viability 1.9, PrP 5UTR inh -56.6 and Mtb hypoxia rep growth 4.6.
`CSc1sc(C(=O)NNC(C)=O)c2c1C1(CCC2)SCCS1` gave Sa RN4220 lethal 0.4, Bead autofluor 4626, Mtb hypoxia rep -4.1, ugtP null kill -2.5, BJeLR viability -5.7, PrP 5UTR inh 14.4 and Mtb hypoxia rep growth 4.5.
Screening COC(=O)c1ccc(/C(O)=C(\C#N)c2nc3ccccc3s2)cc1 returned Bead autofluor 9339, BJeLR viability 2.8 and PrP 5UTR inh -30.7.
`CCCCC(=O)Nc1ccc2c(c1)oc1ccccc12` gave Sa RN4220 lethal -12.0, Bead autofluor 3736, Mtb hypoxia rep 8.4, ugtP null kill -5.3, BJeLR viability 2.9, PrP 5UTR inh -76.9 and Mtb hypoxia rep growth 3.0.
CC(CCc1ccccc1)NC(=O)c1ccc(C(=O)NC(C)CCc2ccccc2)cc1 (stereo unspecified) was read as Sa RN4220 lethal -0.1, Bead autofluor 3612, ugtP null kill 8.4 and PrP 5UTR inh -0.8.
`CCc1ccc(S(=O)(=O)/N=C2\C=C(NS(=O)(=O)c3ccccc3)C(=O)c3ccccc32)cc1` gave Sa RN4220 lethal 28.1, Bead autofluor 3273, Mtb hypoxia rep 14.6, ugtP null kill 14.6, BJeLR viability 5.8, PrP 5UTR inh -2.6 and Mtb hypoxia rep growth -5.8.
Screening CCOC(=O)c1c(C)n(C)c2ccc(OC(C)C(=O)OC)cc12 (stereo unspecified) returned Sa RN4220 lethal 1.5, Bead autofluor 3344, ugtP null kill -0.6, BJeLR viability -3.4 and PrP 5UTR inh -0.4.
Screening CCCC(=O)N1CCCC(C(=O)c2ccc(OC)c(OC)c2)C1 (stereo unspecified) returned Sa RN4220 lethal 4.2, Bead autofluor 4084, Mtb hypoxia rep 16.6, ugtP null kill 7.7, BJeLR viability -2.2, PrP 5UTR inh -26.0 and Mtb hypoxia rep growth 2.5.
`Cc1c(Br)c([N+](=O)[O-])nn1C(C)C(=O)Nc1ccc2c(c1)OCO2` (stereo unspecified) gave Sa RN4220 lethal 1.1, Bead autofluor 4370, Mtb hypoxia rep 12.5, ugtP null kill -0.9, BJeLR viability -11.2, PrP 5UTR inh -26.4 and Mtb hypoxia rep growth 7.4.
`COc1ccc(-c2nnc(-c3cccs3)o2)cc1OC` gave Sa RN4220 lethal 9.8, Bead autofluor 15639, Mtb hypoxia rep 18.9, ugtP null kill -9.0, BJeLR viability 5.3, PrP 5UTR inh -130.4 and Mtb hypoxia rep growth 15.7.
`CC(OC(=O)c1ccc2c(=O)n3c(nc2c1)CCC3)C(=O)Nc1ccc(C(N)=O)cc1` (stereo unspecified) gave Sa RN4220 lethal -3.2, Bead autofluor 3900, Mtb hypoxia rep 9.9, ugtP null kill 1.5, PrP 5UTR inh -12.8 and Mtb hypoxia rep growth 4.4.
`CN(C)c1cccc(C(=O)N2CCC(n3nccc3NC(=O)C3CCOC3)CC2)c1` (stereo unspecified) gave Sa RN4220 lethal 4.0, Bead autofluor 5341, Mtb hypoxia rep 2.6, ugtP null kill 6.8, BJeLR viability -1.9, PrP 5UTR inh -16.3 and Mtb hypoxia rep growth 5.2.
For Oc1ccccc1N1CCN(Cc2ncc(-c3ccccc3)o2)CC1 the results were Sa RN4220 lethal 0.4, Bead autofluor 5513, Mtb hypoxia rep -7.5, ugtP null kill -1.6, BJeLR viability 0.6, PrP 5UTR inh -0.4 and Mtb hypoxia rep growth 3.9.
For O=C(Cc1n[nH]c(=O)c2ccccc12)NN=Cc1cc2c(cc1Cl)OCO2 the results were Sa RN4220 lethal -0.4, Mtb hypoxia rep -10.7, ugtP null kill -3.0 and Mtb hypoxia rep growth 5.6.
For Cc1cc(F)ccc1Oc1cc(NN2CCCCC2)c([N+](=O)[O-])cc1[N+](=O)[O-] the results were Sa RN4220 lethal 7.6, Bead autofluor 3994, Mtb hypoxia rep 24.1, ugtP null kill 9.2, BJeLR viability 11.2, PrP 5UTR inh -11.0 and Mtb hypoxia rep growth 6.8.
`Cc1cc(C)c(S(=O)(=O)N2CCCCC2)c(C)c1N(C)S(=O)(=O)c1ccc(Cl)cc1` gave Bead autofluor 2170, BJeLR viability 3.0 and PrP 5UTR inh -5.5.

3 records picked at random from the list so far, as already listed:
For Oc1ccccc1N1CCN(Cc2ncc(-c3ccccc3)o2)CC1 the results were Sa RN4220 lethal 0.4, Bead autofluor 5513, Mtb hypoxia rep -7.5, ugtP null kill -1.6, BJeLR viability 0.6, PrP 5UTR inh -0.4 and Mtb hypoxia rep growth 3.9.
CC(CCc1ccccc1)NC(=O)c1ccc(C(=O)NC(C)CCc2ccccc2)cc1 (stereo unspecified) was read as Sa RN4220 lethal -0.1, Bead autofluor 3612, ugtP null kill 8.4 and PrP 5UTR inh -0.8.
`Cc1cc(C)c(S(=O)(=O)N2CCCCC2)c(C)c1N(C)S(=O)(=O)c1ccc(Cl)cc1` gave Bead autofluor 2170, BJeLR viability 3.0 and PrP 5UTR inh -5.5.

Next section:
Screening Cc1c(C2(c3c(C)n(C)n(-c4ccccc4)c3=O)C(=O)Nc3ccc(F)cc32)c(=O)n(-c2ccccc2)n1C returned Sa RN4220 lethal -0.4, Bead autofluor 4126, ugtP null kill -8.3, BJeLR viability 2.4 and PrP 5UTR inh -15.6.
CCCN(CC1CC1)C(=O)CCc1nnc(CCc2c[nH]c3ccccc23)o1 was read as Sa RN4220 lethal 2.3, Bead autofluor 2302, Mtb hypoxia rep -0.2, ugtP null kill -6.7, BJeLR viability 5.3, PrP 5UTR inh 4.6 and Mtb hypoxia rep growth 1.8.
CCC(=O)Nc1ccc(S(=O)(=O)N2CCN(c3ccc(F)cc3)CC2)cc1 was read as Sa RN4220 lethal 3.3, Bead autofluor 8425, Mtb hypoxia rep -2.3, ugtP null kill 8.3, BJeLR viability 14.2, PrP 5UTR inh -26.6 and Mtb hypoxia rep growth 0.8.
`Cc1cccc(NC(=O)CN2CCc3cc4c(cc3C2C)OCCCO4)c1` (stereo unspecified) gave Sa RN4220 lethal -1.5, Bead autofluor 4417, Mtb hypoxia rep 8.1, ugtP null kill 5.5, BJeLR viability -0.3, PrP 5UTR inh 5.0 and Mtb hypoxia rep growth 4.3.
Screening N#CC1=CN(Cc2ccccc2)C=C(/C=N/Nc2ccccc2)C1 returned Bead autofluor 4531, BJeLR viability 4.6 and PrP 5UTR inh -33.0.
Screening CCOC(=O)N1C2=NC(C(=O)OC)=C(C(=O)OC)[C@@H]3Nc4ccccc4[C@]23C[C@H]1C(=O)OC returned Bead autofluor 3898, BJeLR viability 4.3 and PrP 5UTR inh -4.1.
Cc1cccc(C)c1OCc1nnc(SCC(=O)Nc2ccc(N3CCOCC3)cc2)o1 was read as Sa RN4220 lethal 1.6, Bead autofluor 3536, Mtb hypoxia rep -12.9, ugtP null kill -2.2, BJeLR viability 0.4, PrP 5UTR inh -5.0 and Mtb hypoxia rep growth 0.6.
`COc1ccc(-c2cc(C(=O)N(C)CC(=O)Nc3cccc(F)c3)c3ccccc3n2)cc1` gave Sa RN4220 lethal -2.7, Bead autofluor inconclusive, Mtb hypoxia rep -2.3, ugtP null kill -3.4, BJeLR viability -1.9, PrP 5UTR inh -10.8 and Mtb hypoxia rep growth -4.1.
`COC(=O)NNC1=CC(=O)CC(C)(C)C1` gave Sa RN4220 lethal 0.3, Bead autofluor 4507, Mtb hypoxia rep 8.8, ugtP null kill -0.5, BJeLR viability 5.7, PrP 5UTR inh -31.2 and Mtb hypoxia rep growth -2.5.
`CCCNC(=O)C(Cc1cccc(Cl)c1)NC(=O)c1ccccc1` (stereo unspecified) gave Sa RN4220 lethal 3.0, Bead autofluor 2991, Mtb hypoxia rep 5.1, ugtP null kill 0.6, PrP 5UTR inh 1.0 and Mtb hypoxia rep growth 11.6.
COc1ccccc1NC(=O)Nc1ccc(-n2ccc(C(F)(F)F)n2)cc1 was read as Sa RN4220 lethal -11.8, Mtb hypoxia rep 0.2, ugtP null kill -14.8, BJeLR viability -6.5, PrP 5UTR inh -54.1 and Mtb hypoxia rep growth -6.0.

Bioassay records as filed in PubChem BioAssay.
